KCNQ2 pot: potentiators of rat KCNQ2 potassium channel | CHO-K1 KCNQ2, FluxOR thallium flux fluorescence; active compounds read high | AID 2239, 2010 | B-score at 10 µM | 310,000 tested, 0.54% active | Potassium voltage-gated channel subfamily KQT member 2 (Rattus norvegicus), O88943;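 active = fluorescence ratio B-score at least 3 SD of library B-scores, with initial fluorescence B-score within 3 SD, cut at about 5.3 in these data; same plate scores as AID 2156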;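 note: B-score of peak minus minimum over baseline fluorescence ratio after K+ and Tl+ stimulus; positive B-score means potentiation of KCNQ2 with more thallium influx and brighter signal; only the inactives scoring about 0 or higher are listed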
Target sequence (O88943 whole entry, looked up): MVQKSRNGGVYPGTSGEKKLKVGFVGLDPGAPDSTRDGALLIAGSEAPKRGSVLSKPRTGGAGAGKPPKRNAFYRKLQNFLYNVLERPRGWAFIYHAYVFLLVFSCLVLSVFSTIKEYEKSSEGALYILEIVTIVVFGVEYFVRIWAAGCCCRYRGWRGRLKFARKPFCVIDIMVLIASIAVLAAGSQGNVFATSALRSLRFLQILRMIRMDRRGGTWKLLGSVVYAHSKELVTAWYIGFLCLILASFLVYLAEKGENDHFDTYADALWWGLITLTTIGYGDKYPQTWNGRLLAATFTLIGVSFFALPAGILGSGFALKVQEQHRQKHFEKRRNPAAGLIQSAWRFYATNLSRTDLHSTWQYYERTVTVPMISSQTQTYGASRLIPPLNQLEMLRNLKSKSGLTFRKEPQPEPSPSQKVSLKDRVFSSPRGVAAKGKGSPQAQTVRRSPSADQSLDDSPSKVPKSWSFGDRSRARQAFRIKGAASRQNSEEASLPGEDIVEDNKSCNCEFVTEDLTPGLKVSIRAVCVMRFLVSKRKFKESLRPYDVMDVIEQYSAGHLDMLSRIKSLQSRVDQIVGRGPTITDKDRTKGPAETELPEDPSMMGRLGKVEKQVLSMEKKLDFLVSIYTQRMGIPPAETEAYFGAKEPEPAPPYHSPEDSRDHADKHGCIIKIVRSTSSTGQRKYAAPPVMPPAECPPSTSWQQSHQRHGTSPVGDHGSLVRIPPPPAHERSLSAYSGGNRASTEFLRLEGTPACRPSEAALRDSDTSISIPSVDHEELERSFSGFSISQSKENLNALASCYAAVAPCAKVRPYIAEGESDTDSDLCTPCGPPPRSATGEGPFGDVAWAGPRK
KCNQ2 pot baseline: further read-out of KCNQ2 pot, marked with its call; B-score; compound at 10 µM; measured here: initial fluorescence intensity artifact check;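 brightness before thallium and not channel activity; 0 = typical well and far values either way flag optical interference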
Starred values were filed as active, the others as inactive.

KCNQ2 pot	KCNQ2 pot baseline	Compound
0.45	-1.2	O=C(Cn1c(=O)n(-c2ccc(F)cc2)c(=O)c2sccc21)NC1CCCCC1
0.23	1	COc1ccccc1NS(=O)(=O)c1ccc(NC(=O)c2ccncc2)cc1
2	1.1	O=C(CCN1C(=O)/C(=C/c2ccco2)SC1=S)Nc1ccc(O)cc1C(=O)O
1.9	-0.34	Cc1ccc(C23CC4CC(CC(C(=O)NC(C)C(N)=O)(C4)C2)C3)cc1 (stereo unspecified)
1.5	-2.1	COc1ccc(C2CC(C(F)(F)F)n3nc(C(=O)NCc4cn(C)nc4C)c(Cl)c3N2)cc1 (stereo unspecified)
0.07	-0.75	C=CCNC(=O)N1CCc2[nH]c3ccc(F)cc3c2C1
1.5	-0.83	O=C(CSc1nnc(-c2cccs2)n1-c1ccccc1)N1CCCC1
0.24	0.63	Cc1cccc(N2C(=O)/C(=C/c3cccnc3)SC2=S)c1
1.2	-0.57	N#Cc1ccccc1COc1ccc(/C=C/C(=O)O)cc1
3	-2.2	CCOC(=O)c1ccc(CNCc2ccccc2)cc1
6.1*	-1.8*	Cc1ccc(C(=O)Nc2nc3ccccc3c(=O)s2)cc1
0.08	0.67	COc1cc(N=C2C(=O)N3c4c(cccc42)C(C)=CC3(C)C)cc(OC)c1

(next part)
KCNQ2 pot	KCNQ2 pot baseline	Compound
0.17	1.6	COc1cc(OC)cc(-c2nnc(SCc3c(F)cccc3Cl)o2)c1
1.4	-2.6	CN(CCOC(=O)c1ccc2c(c1)OCO2)C(C)(C)C
1.2	-0.58	CC(=O)Nc1ccc(C(=O)CSc2nc3ccc(C)cc3[nH]2)cc1
0.49	0.1	CCOC(=O)c1cc(CC)sc1NC(=O)CSc1nc2ccccc2c(=O)n1Cc1ccco1
2.5	-0.85	O=C(/C=C/c1ccccc1)NC(NC(=S)Nc1cccc(Cl)c1)C(Cl)(Cl)Cl (stereo unspecified)
1.4	0.03	Cc1cccc(NC(=O)NC2CC(=O)N(c3ccc4c(c3)OCCO4)C2)n1 (stereo unspecified)
0.41	0.19	CCCn1c(=O)c2sccc2n2c(CCCC(=O)NCC3CCCO3)nnc12 (stereo unspecified)
0.75	-1.3	Cc1ccc(SCC(=O)Nc2ccc(-c3nc4ccccc4[nH]3)cc2)cc1
0.05	-0.06	Cc1cc(S(=O)(=O)N2CCCC2)ccc1OCC(=O)NCc1ccccc1
0.09	-0.96	COC(CNC(=O)CNC(=S)N(Cc1ccccc1)Cc1cccnc1)OC
1.1	-1.2	O=C(NCCSCc1c(F)cccc1Cl)c1ccc(CN2CCOCC2)cc1
0.06	-0.71	CCCn1c(-c2cc(OC)c(OC)c(OC)c2)nc2c1c(=O)[nH]c(=O)n2Cc1ccccc1

(cont.)
KCNQ2 pot	KCNQ2 pot baseline	Compound
0.32	0.11	CC[C@@]12C(=O)N(c3cccc(F)c3)C(=O)N1[C@H](c1ccc(Cl)cc1)[C@@H]1C(=O)N(C3CCCCC3)C(=O)[C@@H]12
0.69	-0.44	CCn1nc(C)c(/C=N/NC(=O)c2nc3nc(C)cc(C)n3n2)c1C
1.5	0.19	O=C(Nc1ccncc1)c1cc(S(=O)(=O)N2CCCCC2)ccc1Cl
0.11	0.44	COc1cc(C(=O)NCCC(=O)NC2CCCc3ccccc32)cc(OC)c1OC (stereo unspecified)
0.32	0.98	CC(C)C1=Nc2cccc3cccc(c23)N1
0.62	0.58	CNc1nc(CC(C)=O)ns1
0.4	0.16	COc1ccccc1NCC(O)Cn1c2ccccc2c2ccccc21 (stereo unspecified)
2.5	-0.43	COc1ccc2c(c1OC)C(=O)OC2CC(=O)c1ccc(O)cc1 (stereo unspecified)
0.98	0.43	CC1(C)Cc2c(cnn2-c2ccccc2)C(NC(=O)C2(C(N)=O)CC2)C1 (stereo unspecified)
0.26	-0.1	Cc1nc2ccc(N=NC3=C(O)CC(C)(C)CC3=O)cc2s1
0.01	-2	COC(=O)c1cc(CNC(=O)C(C)NS(=O)(=O)c2ccc(C)c(C)c2)ccc1OC (stereo unspecified)
1	-0.97	CC(=O)Nc1ccc(C(=O)Nc2ccc(S(=O)(=O)NCC3CCCO3)cc2)cc1 (stereo unspecified)

Looked up above:
For KCNQ2 pot baseline, Cc1nc2ccc(N=NC3=C(O)CC(C)(C)CC3=O)cc2s1 has -0.1
For KCNQ2 pot, COC(=O)c1cc(CNC(=O)C(C)NS(=O)(=O)c2ccc(C)c(C)c2)ccc1OC (stereo unspecified) has 0.01
For KCNQ2 pot, COc1ccc2c(c1OC)C(=O)OC2CC(=O)c1ccc(O)cc1 (stereo unspecified) has 2.5

Further entries.
KCNQ2 pot	KCNQ2 pot baseline	Compound
0.22	0.13	CC(=O)c1ccc(OCC(C)C)c(CN2CCCCC2)c1
0.95	-0.12	CCOC(=O)c1c2ccccc2[n+]([O-])n1CCO
0.26	0.98	CC(C)C[C@H](NC(=O)N1CC(=O)Nc2ccccc21)C(=O)N[C@@H](Cc1c[nH]c2ccccc12)C(=O)O
0.43	-1.3	Cc1c(C(=O)O)c(C(=O)O)nc2ccc(N3CCOCC3)cc12
0.12	5.8	COc1ccccc1N=C(C)C1=C(O)COC1=O
1	-0.79	CCn1c(SCC(=O)N/N=C(/C)c2ccncc2)nc2ccccc21
0.3	0.96	CCOc1ccccc1/C=N/n1nnnc1N
0.59	-0.33	CCn1c(-c2c[nH]c3ccccc23)n[nH]c1=S
1.2	0.71	CCN1CCN(C(=O)c2cccc(OC3CCN(S(C)(=O)=O)CC3)c2)[C@@H](C)C1=O
0.86	1.5	O=C(N/N=C/c1cccc(OC(=O)c2ccc3c(c2)OCO3)c1)c1cncc(Br)c1
0.73	-0.75	CCCC(C)NC(=O)COC(=O)c1ccccc1SCC(=O)NC(C)CCC (stereo unspecified)
0.07	-0.09	CNS(=O)(=O)c1ccc(C)c(S(=O)(=O)NC)c1

Looked up one by one from the entries so far (two):
KCNQ2 pot	KCNQ2 pot baseline	Compound
0.22	0.13	CC(=O)c1ccc(OCC(C)C)c(CN2CCCCC2)c1
0.07	-0.09	CNS(=O)(=O)c1ccc(C)c(S(=O)(=O)NC)c1

Given in CSV form: part of the list above
Compound,KCNQ2 pot,KCNQ2 pot baseline
CC(=O)c1ccc(OCC(C)C)c(CN2CCCCC2)c1,0.22,0.13
CCOC(=O)c1c2ccccc2[n+]([O-])n1CCO,0.95,-0.12
CC(C)C[C@H](NC(=O)N1CC(=O)Nc2ccccc21)C(=O)N[C@@H](Cc1c[nH]c2ccccc12)C(=O)O,0.26,0.98
Cc1c(C(=O)O)c(C(=O)O)nc2ccc(N3CCOCC3)cc12,0.43,-1.3
COc1ccccc1N=C(C)C1=C(O)COC1=O,0.12,5.8
CCn1c(SCC(=O)N/N=C(/C)c2ccncc2)nc2ccccc21,1,-0.79

Going on with the list:
KCNQ2 pot	KCNQ2 pot baseline	Compound
0.08	0.02	CC1CCCCC1NC(=O)CSc1nnc(CNC(=O)c2ccccc2)n1C (stereo unspecified)
0.01	0.63	O=C(NCCc1ccccc1)c1cc2ccccc2oc1=O
0.63	-0.33	CCOc1cccc(SCc2noc(C(=O)NCC3CCCO3)c2C(=O)O)c1 (stereo unspecified)
0.75	-0.72	CCOC(=O)N1CCN(c2cc(=O)n(-c3ccc(OCC)cc3)c(=O)[nH]2)CC1
0.45	0.72	O=C(O)C1C2C=CC(O2)C1C(=O)NCc1ccc2c(c1)OCO2 (stereo unspecified)
0.17	-0.01	CC(=C/c1ccccc1)/C=N/NC(=O)c1cccs1
0.26	-0.16	Cc1ccc(C2=NN(CCC(=O)NC3CCCC3)C(=O)CC2)cc1
2.8	-1.1	Cc1c(C#N)c2ccccc2n1CCOc1ccccc1F
1	-0.65	CCOC(=O)N1CCN(C(=O)CCCn2nnnc2CN2CCC(C)CC2)CC1
0.83	2.8	COc1cc(S(=O)(=O)N2CCOCC2)cc(C(=O)c2nccn2C)c1OC
0.11	0.86	CCc1ccc(NC(=O)CCn2nc(C)c(S(=O)(=O)N3CCCCC3)c2C)cc1
0.02	0	CCn1cc(C(=O)NCCCOC)c2cc(OC)c(OC)cc2c1=O

Next entries:
KCNQ2 pot	KCNQ2 pot baseline	Compound
2.7	0.07	NC(=O)c1nn(-c2ccc(Oc3ccccc3)cc2)c(=O)cc1O
0.01	-0.01	O=C(NCCS(=O)(=O)c1ccc(Br)cc1)c1ccccc1
1.6	-1.9	COCC(C)n1c(C)cc(C(=O)COC(=O)c2nc3nc(C)cc(C)n3n2)c1C (stereo unspecified)
1.5	-3.4	CCOc1ccc(S(=O)(=O)N2c3ccccc3CC2C)cc1 (stereo unspecified)
0.09	1.5	C#CCNC(=O)C1=C[C@H](C2CC2)C[C@H](OCCCCO)O1
0.03	0.73	Nc1nc(Cl)nc2c1ncn2[C@H]1C[C@H](O)[C@@H](CO)O1
0.61	0.03	CCc1nccn1S(=O)(=O)c1cc(OC)c(Cl)cc1OC
0.02	0.16	CC(=O)N(CCO)Cc1cc2cc(C)cc(C)c2[nH]c1=O
1.8	1.6	CCc1ccc(NC(=O)C2CCCN(S(=O)(=O)c3c(C)[nH]c(=O)[nH]c3=O)C2)cc1 (stereo unspecified)
0.02	-1.3	C/C=C/c1ccc(OCCCCN2C(=O)NC(C)(C)C2=O)c(OC)c1
1.4	0.36	O=C(COc1ccccc1F)Nc1ccc2[nH]c(=O)[nH]c2c1
1.3	-2.5	O=C(CSc1nnnn1-c1ccc(F)cc1)Nc1ccccc1F

More results
KCNQ2 pot	KCNQ2 pot baseline	Compound
1.3	2.2	CCOC(=O)c1sc(C)c2c(=O)n(Cc3ccc(Cl)cc3)c(C)nc12
0.31	-0.35	COc1ccc(Cc2nnc(SCC(=O)NC3(C#N)CCCCC3)n2N)cc1
0.01	-0.68	Cc1ccc(CN2CCN(C(=O)C3CCC3)CC2)cc1
0.83	1	COCCCNC(=O)[C@H]1N2C(=O)c3ccccc3C2SC1(C)C (stereo partly specified)
0.72	1.5	O=C(C[n+]1ccccc1)N/N=C/c1cccs1
1.2	-0.77	CCOC(=O)N1CCN(c2c(NCc3ccccc3OC)c(=O)c2=O)CC1
0.04	-0.85	Cc1cc(Br)ccc1NC(=O)CNC(=O)CN1C(=O)NC2(CCCCCC2)C1=O
13*	-0.69*	CC(NC(=O)NC1CCCCC1)c1ccccc1 (stereo unspecified)
3	2.1	CN1C(=O)/C(=C/c2ccc(OCc3ccc(C(=O)O)cc3)c(Cl)c2)NC1=S
0.47	-2	CC(=O)c1nc(-c2ccccc2)sc1C
1.9	3	CC(NC(=O)CCCC1CCCCC1)c1ccc(S(N)(=O)=O)cc1 (stereo unspecified)
0.52	-0.28	C/C(=N/NC(=O)CCc1c(C)n[nH]c1C)c1cccc([N+](=O)[O-])c1

The list goes on:
KCNQ2 pot	KCNQ2 pot baseline	Compound
0.78	-0.24	CC(C)CC(=O)/C=C/n1c(=S)oc2ccccc21
1.7	-0.54	O=C(CN1C(=O)c2ccccc2C1=O)Nc1ccccc1
0.07	0.86	COc1ccc2[nH]c(CN3CCN(CC(C)C)C(CCO)C3)c(C)c2c1 (stereo unspecified)
1.2	4.3	N=c1c(C(=O)NCc2ccc(F)cc2)cc2c(=O)n3ccccc3nc2n1CC1CCCO1 (stereo unspecified)
0.46	-0.01	O=C(C1CCN(S(=O)(=O)c2cccc3nonc23)CC1)N1CCCCC1
1.5	-1.5	COc1ccc(C(C)=O)cc1CN1C(=O)NC2(CCCC2)C1=O
2.3	-1.1	CN(C)CCOC1c2ccccc2-c2ccccc21
0.53	-0.3	O=C(NCCc1ccc(Cl)cc1)C1CCN(S(=O)(=O)c2ccc(-n3cnnn3)cc2)CC1
0.04	0	CN(CCNC(=O)C1CC(=O)N(c2ccc(F)c(Cl)c2)C1)Cc1ccccc1 (stereo unspecified)
0.75	-2.8	O=C(N/N=C/C1CC2C=CC1C2)c1ccccc1O (stereo unspecified)
0.06	1.9	CCOC(=O)C1=C(C)N=c2s/c(=C\c3ccc(OC(C)=O)c(OCC)c3)c(=O)n2C1/C=C/c1ccccc1 (stereo unspecified)
0.33	0.57	CC(=O)c1cccc(NS(=O)(=O)c2c(C(=O)N3CCOCC3)c(C)n(C)c2C)c1

More compounds follow.
KCNQ2 pot	KCNQ2 pot baseline	Compound
0.46	-0.23	CCOc1ccc(NC(=O)N(CCN(C)C)C(C)c2cccnc2)cc1 (stereo unspecified)
0.08	-0.08	CC(C)c1ccc(NC(=O)C(c2ccccc2)N2CCN(C(=O)c3ccco3)CC2)cc1 (stereo unspecified)
0.02	0.41	CCCn1c(N)c(C(=O)COC(=O)c2c(C)noc2C)c(=O)n(C)c1=O
0.77	0.12	O=C(CN1CCc2ccccc2C1)NCc1ccco1
0.12	-0.66	CCN(c1cccc(C)c1)S(=O)(=O)c1c(C)[nH]c(C)c1C(=O)N1CCCCC1
1.7	0.08	O=C(COC(=O)c1ccccn1)NCCCc1ccccc1
0.1	0.58	COc1ccc(CCNC(=O)CNC(=O)c2ccc3c(c2)OCO3)cc1OC
0.44	0.31	Cc1ccc(/C(O)=C2/C(=O)C(=O)N(CC(=O)O)C2c2ccc([N+](=O)[O-])cc2)cc1 (stereo unspecified)
0.18	-0.5	CC(C)NC(=O)CN1C(=O)CSc2ccc(S(=O)(=O)N3CCCC3)cc21
0.16	-1.2	CCc1ccc(/C=C\C(=O)N2CCc3ccccc3C2)cc1
0.92	-3	CNC(=O)c1ccc(-c2ccc(OC)cc2)s1
0.66	-2	O=C(CCn1c(=O)[nH]c2ccsc2c1=O)N1CCN(c2cccc(Cl)c2)CC1

Assay outcomes deposited in PubChem by Johns Hopkins Ion Channel Center.

Some of the compounds tested. The share of hits here may be higher or lower than overall.
